NPYLR7 agonist = activates Aedes aegypti NPYLR7 receptor. 270,000 compounds, 0.15% hits. activation, % at 10 µM. HEK293T NPYLR7/Galpha15, GCaMP6s calcium fluorescence; in the data active = activation above about 40%;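 also: 0% = vehicle and 100% = reference agonist at the receptor; some compounds past the cut are filed as inactive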
NPYLR7 agonist max-min = also measured in NPYLR7 agonist; calls as there; activation, %; measured here: Max-Min RFU normalised activation; some inactives read as strong as hits;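 span of the calcium signal over five minutes; 0% = vehicle and 100% = native peptide agonist; compound fluorescence can raise it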
* hit, by the source's call; & = joins results of further samples. This is a subset; count on the stated rates, not on these rows.

no.	SMILES	NPYLR7 agonist	NPYLR7 agonist max-min
1	Cc1cccn2c(CN3CCC(c4ccccc4F)C3)c(C(=O)N3CCCCC3)nc12 (stereo not drawn)	9&-6	11&-9
2	CCCC1COCCN1C(=O)c1cnn2ccn(C)c12 (stereo not drawn)	0	8
3	COc1ccc2nc(N(CCn3cccn3)C(=O)c3cc4ccccc4o3)sc2c1	-19	-22
4	COCCNC(=O)C(NC(=O)c1cc(-c2cccn2C)on1)c1ccccc1 (stereo not drawn)	2	-2
5	Cc1nn(C)c(Cl)c1S(=O)(=O)N1CCCC(C(=O)c2cccc(OC(C)C)c2)C1 (stereo not drawn)	-4&-5	-5&-3
6	Cc1cc(C=O)c(C)n1-c1cc(C(F)(F)F)ccc1N1CCOCC1	-5	-11
7	CN1CCN(C(=O)c2c(O)cccc2O)CC1c1ccccc1 (stereo not drawn)	1	0
8	O=C(Nc1nc(-c2ccccn2)cs1)c1nc2ccccc2s1	10	20

Some values from the results shown:
Result for #8 in NPYLR7 agonist max-min: 20
Result for #2 in NPYLR7 agonist max-min: 8

New compounds follow:
no.	SMILES	NPYLR7 agonist	NPYLR7 agonist max-min
9	CN1CCN(CCCN(C)C(=O)C2(C#N)CCCCC2)CC1	5	2
10	CCc1ccc(-n2c(C(CC)N(CCc3ccc(OC)c(OC)c3)C(=O)c3ccc(Br)cc3)nc3ccccc3c2=O)cc1 (stereo not drawn)	-2	-10
11	C=CCNC(=O)c1cccnc1-c1ccc(OC)c2ncccc12	1	0
12	COc1cc2c3c(c1OC)C1(C=CC(=NNC(N)=S)C=C1)CC3N(C(C)=O)CC2 (stereo not drawn)	-8	-13
13	COc1ccccc1N1CCN(C(=O)CSc2nc3c(-c4ccccc4)c[nH]c3c(=O)n2C)CC1	-1	-5
14	O=S(=O)(c1ccc2c(c1)nc(SCc1ccccc1Br)n2CC1CCCO1)N1CCOCC1 (stereo not drawn)	21	20
15	CCNC(=O)N[C@H]1CC[C@]2(C)CCC([C@H](C)C(=O)NCc3ccccc3OC)[C@H](O)[C@H]2[C@@H]1C (stereo partly drawn)	-8	-14
16	O=C1CCCN1Cc1nnc(SC/C=C/c2ccccc2)o1	-1	-2
17	CCc1c(C(=O)OC)sc2nc(CN(Cc3ccco3)CC(O)Cc3ccccc3)[nH]c(=O)c12 (stereo not drawn)	-6	-4
18	N#CC(c1nc2ccccc2nc1OCCO)S(=O)(=O)c1ccccc1 (stereo not drawn)	9	5
19	COc1cccc(-c2nn(CN3CCCC3c3ccccc3)c(=S)n2C)c1 (stereo not drawn)	12	8
20	O=C(c1cc2c(s1)CCC2)N1CCN(c2ccccc2O)CC1	0	-3
21	COc1ccc(Cl)cc1C(=O)Nc1cc(-c2cccs2)nn1-c1nc(C)cc(=O)[nH]1	1	-1
22	Cc1cc(=O)n2c(-c3cccc(NC(=O)Nc4cccc(F)c4)c3)csc2n1	-1	-2
23	CCOc1ccc(C2NC(=O)NC(C)=C2C(=O)OCCSCC)cc1 (stereo not drawn)	2	-7
24	CC(C)OCCS(=O)(=O)N1CCC(c2ccccc2F)C1 (stereo not drawn)	1	-1

Down the list, as entered above.
NPYLR7 agonist, nos. 17–24: -6, 9, 12, 0, 1, -1, 2, 1
NPYLR7 agonist max-min, nos. 17–24: -4, 5, 8, -3, -1, -2, -7, -1

Following part
no.	SMILES	NPYLR7 agonist	NPYLR7 agonist max-min
25	CCCc1cc(NC(C)CC)n2nc3nc(C)cc(C)c3c2n1 (stereo not drawn)	-1	47
26	CN1CCC2(CC1)CN(C(=O)[C@H](N)Cc1ccccc1)CCN2C	-5	-7
27	Clc1ccc(-c2nnc(-c3ccncc3)o2)c(Cl)c1	5	2
28	O=C(N/N=C\c1cccc(Br)c1)c1cc(-c2cccc([N+](=O)[O-])c2)n[nH]1	2	-3
29	COc1ccc(CN(C(=O)C2CCC2)C2CC2)cc1OS(=O)(=O)c1ccc(NC(C)=O)cc1	14	3
30	Cn1c(N)nnc1SCc1cnn(-c2ccccc2)n1	-1	-6
31	CN(Cc1ncnn1C)C(=O)NCC1(c2ccc(F)cc2)CCCC1	4	0
32	CC(CNS(=O)(=O)N1CCCCCC1)CN1CCCCC1 (stereo not drawn)	7	7

In the list so far, these contain a furan ring, fused or not:
no.	SMILES	NPYLR7 agonist	NPYLR7 agonist max-min
3	COc1ccc2nc(N(CCn3cccn3)C(=O)c3cc4ccccc4o3)sc2c1	-19	-22
17	CCc1c(C(=O)OC)sc2nc(CN(Cc3ccco3)CC(O)Cc3ccccc3)[nH]c(=O)c12 (stereo not drawn)	-6	-4

Following part
no.	SMILES	NPYLR7 agonist	NPYLR7 agonist max-min
33	O=C(CCCCC(=O)Nc1c(I)cc(I)c(C(=O)O)c1I)Nc1c(I)cc(I)c(C(=O)O)c1I	-2	-4
34	C[C@@H](NC(=O)OC(C)(C)C)C(=O)Nc1cn(C)nc1-c1ccncc1	1	17
35	O=S(=O)(Cc1ccc(F)cc1)Nc1ccc2c(c1)CN(S(=O)(=O)c1ccccc1)CC2	9	3
36	CC(=O)c1cccc(S(=O)(=O)N2CCN(CN3C(=O)CC4(CCCC4)C3=O)CC2)c1	3	11
37	COCCN(Cc1cc(NC(=O)c2ccccc2Cl)ccc1N(C)C)C(=O)c1cccs1	0	4
38	CN(CC(=O)Nc1cccc(N2CCCC2)c1)c1ccc(Cl)cn1	3	2
39	CNc1ccc(Cl)cc1C(=O)NCCN(C)S(C)(=O)=O	-3	3
40	N#Cc1cnn(-c2ncnc3sc4c(c23)CCC4)c1N	-6	-10
41	O=C(N/N=C\c1cccs1)c1cc(C2CC2)nc2ccc(Br)cc12	6	7
42	CN1CCN(C(=O)/C=C/c2c[nH]c3ccccc23)CC1	0	-6
43	CSc1n[nH]c(NCc2cccs2)n1	0	-1
44	COc1ccc(CC(=O)Nc2ncc(C(N)=O)s2)cc1	8	6
45	O=C(NCc1cc(Cl)c2c(c1)OCCCO2)c1cncn1-c1ccc(F)cc1	3	1
46	COc1cc(OC)cc(C(=O)Nc2ccc(N3CCCCC3)c(C(=O)NCCc3ccccc3)c2)c1	-1	4
47	Cc1ccsc1C(CNC(=O)c1ccc2[nH]c(=O)[nH]c2c1)N(C)C (stereo not drawn)	4	1
48	O=C(NCc1ccco1)C(C1CCCC1)N1CCN(C(=O)c2cccc(F)c2)CC1 (stereo not drawn)	-6	-9
49	CCOCCCn1c(SCc2ccc(-c3csnn3)cc2)nc2cc(C(=O)OCC)ccc21	6	7
50	COc1ccc(-c2cc3ccc4c(c3oc2=O)CN(C2CC2)CO4)cc1	14	5
51	COc1ccc(CCNC(=O)c2cc(-c3ccc(C)s3)nc3ccccc23)cc1	-5	-8
52	Cc1c(C(=O)N2CCN(C(=O)c3cc(C(F)(F)F)cc(C(F)(F)F)c3)CC2)cc(-c2ccc(F)cc2)n1-c1ccccc1	0	8
53	COc1cc(C(=O)Nc2oc3ccccc3c(=O)c2-c2cccc(C)c2)cc(OC)c1OC	2	3
54	COc1cccc(C(=O)NCCNc2cc(-n3nc(C)cc3C)ncn2)c1OC	-6	-12
55	NS(=O)(=O)c1ccc(NC(=O)NCc2ccccc2N2CCCC2)cc1	0	-1
56	Cc1c(C(C)NC(=O)c2ccc3c(c2)OCO3)cnn1-c1ccccn1 (stereo not drawn)	0	0
57	CC(C)Oc1cc(NCCN2CCCC2)nc(N)n1	-1	-9
58	COc1ccc(N2C(=O)/C(=C/c3ccc(O)c(OC)c3)N(C)C2=S)cc1	24	21
59	Cc1nc(C)c(C(=O)Nc2ncc([N+](=O)[O-])s2)o1	-6	-6
60	O=S(=O)(NCCOc1ccccc1)NCc1ccccc1	7	4
61	O=C(c1cccc(C(F)(F)F)c1)N(Cc1c(-c2ccccc2)noc1N1CCCC1)CC1CCCO1 (stereo not drawn)	9	13
62	CC1(Cc2ccccc2OC(F)(F)F)C(=O)Nc2cc(-c3ccc(F)cc3F)ccc21 (stereo not drawn)	6	9
63	Cc1ccccc1CCNc1ccc2nnnn2n1	-10	-8
64	COc1ccc2c(c1)N(C[C@H](C)CN(C)C)c1ccccc1S2	-6	-7
65	CCCCc1ccc(C(=O)N2CCN(C(=O)c3cc(-c4cccc(OC)c4)n(-c4ccccc4)c3C)CC2)cc1	-9	-1
66	COc1ccc(-c2cc3c(=O)n(CC(=O)Nc4ccccc4C)ccn3n2)cc1OC	2	1
67	O=S(=O)(NCCc1csc2nc(-c3cccs3)nn12)c1cccs1	2	2
68	C#CCN1CCN(C(=O)CNc2ccccc2-n2cccn2)CC1	-1	1
69	O=C(c1ccc(CSc2nc(Cl)cc(N3CCN(c4cccc(Cl)c4)CC3)n2)cc1)N1CCOCC1	9	16
70	O=C(COc1ccc(F)cc1)Nc1ccc(N2CCOCC2)cc1	-5	-7
71	CCOC(=O)C1(C)CCN1C(=O)c1ccccc1C(F)(F)F (stereo not drawn)	3	1
72	Clc1ccccc1CSc1nnc(-c2ccc[nH]2)o1	-3	-1
73	CN1CCNC(=O)C12CCN(C(=O)C1CCc3ccccc3C1)CC2 (stereo not drawn)	-1	0
74	CC(C)N(CC(=O)N(CCc1c[nH]c2ccccc12)Cc1ccc(C(F)(F)F)cc1)C(=O)NCc1ccccc1	14	13
75	COC(=O)c1ccccc1S(=O)(=O)N1CCN(Cc2cc(=O)c(OCc3cc(C)cc(C)c3)co2)CC1	5	2
76	CCCC(=O)N(Cc1cccnc1)c1nc2c(OC)ccc(Cl)c2s1	14	9
77	CC(Cc1ccco1)NC(=O)c1ccc(Cl)c(S(C)(=O)=O)c1 (stereo not drawn)	5	4
78	COc1ccc(OCc2cc(C(=O)N(C)C(C)c3ccon3)n[nH]2)c(Cl)c1 (stereo not drawn)	3	0
79	COCc1c(Br)c(C)nc(OCC(=O)N/N=C\c2ccc(OCc3ccc([N+](=O)[O-])cc3)cc2)c1C#N	24	21
80	CC(C)Oc1cccc(-n2c(CCc3c[nH]c4ccc(Br)cc34)nc3ccccc3c2=O)c1	-16	-17

Three compounds drawn at random from those above, as already listed:
no.	SMILES	NPYLR7 agonist	NPYLR7 agonist max-min
77	CC(Cc1ccco1)NC(=O)c1ccc(Cl)c(S(C)(=O)=O)c1 (stereo not drawn)	5	4
76	CCCC(=O)N(Cc1cccnc1)c1nc2c(OC)ccc(Cl)c2s1	14	9
80	CC(C)Oc1cccc(-n2c(CCc3c[nH]c4ccc(Br)cc34)nc3ccccc3c2=O)c1	-16	-17

(more compounds)
no.	SMILES	NPYLR7 agonist	NPYLR7 agonist max-min
81	COc1cccc2c1OCCCN(C(=O)c1ccccc1C1CCNC1)C2 (stereo not drawn)	3	2
82	COc1ccc(OC)c(C2SCC(=O)N2CC(=O)N(C)C)c1 (stereo not drawn)	2	12
83	CC(Cn1cncn1)NCc1cccnc1N1CCN(c2ccccn2)CC1 (stereo not drawn)	2	-3
84	CCCc1cc(NCC2(O)CCCNCC2)nc(C)n1 (stereo not drawn)	8	4
85	C=CCNc1nc2c(c(=O)n(C)c(=O)n2C)n1CC	12	7
86	CCOC(=O)c1cc(NC(=O)C(C)c2ccc(CC(C)C)cc2)ccc1O (stereo not drawn)	-2	-5
87	Cc1cc(C)n(CCNC(=O)COc2c(C)ccc(C)c2C)c(=O)n1	-2	-3
88	O=c1c(Cl)c(N2CCC(COc3ccccc3)CC2)cnn1-c1ccccc1	7	5
89	COC(=O)C1=C(C)Nc2sc(C(N)=O)c(N)c2C1c1cccs1 (stereo not drawn)	0	9
90	Cc1noc(-c2ccc(N(C)Cc3ccsc3)nc2)n1	19	8
91	C=CCCC(=O)N1CCC(c2nc(-c3ccccc3Cl)no2)CC1	26	13

Screening results (PubChem BioAssay)
